Screening data deposited in PubChem by PCMD.
Biofilm kill mix: mixture kills Candida albicans biofilm cells; inhibition, % at 7.6 µM; C. albicans biofilm persisters + clotrimazole, fluorescence viability; primary screen in compound mixtures of four per well; AID 1242; actives 0.02% (n = 120,000);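 active = inhibition above 30.3% in the primary screen of four-compound pools, then above 30% when the compound was retested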;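 note: compounds exposed to preformed 24 h biofilms for 48 h; the number belongs to the whole pool; some results filed as inactive read as strong as hits; inactives centre near 12; 0% = biofilm with clotrimazole alone and 100% = kill control; retested singly at about 60 µM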
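Test system: C. albicans biofilms. Buffer or medium: RPMI/MOPS medium, pH 7.0. Timing: 48 h compound exposure at 37 °C. Technique: Alamar Blue fluorescence. Evaluation: percent inhibition of biofilm viability.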
* hit, by the source's call; ! = a repeat was not active. Not all compounds are listed. The share of hits here may be higher or lower than overall.

SMILES	Biofilm kill mix
Cc1ccc(NC(=S)N2CCc3[nH]c4ccccc4c3C2)cc1	6
Cc1ccc(NC(=O)CSCc2ccc(F)cc2)cc1	11
COC(=O)[C@@H]1C[C@H]2CC[C@H](O)C[C@H]2N1Cc1ccccc1OC(=O)c1cccs1	13
CNS(=O)(=O)c1cc(C(=O)O)ccc1OC	11
COc1ccccc1C(=O)Nc1ccc(-c2nnn(CC(=O)N3CCOCC3)n2)cc1	16
CCOC(=O)c1c(NC(=O)CN2CCCCC2)sc(CN(C)C)c1-c1ccccc1	18
Cc1ccc(NC(=O)C2CC(Cl)=CCC2C(=O)O)c([N+](=O)[O-])c1 (centres undefined)	13
Cc1cc(OCC(=O)Nc2ccc(S(=O)(=O)N3CCN(C)CC3)cc2)ccc1Cl	18
O=C(CNC(=O)c1ccc(Br)o1)OCC(=O)c1cccc([N+](=O)[O-])c1	10
COC(=O)c1nc(N)sc1-c1ccc(Cl)cc1	20
COc1ccc(NC(=S)N(Cc2cccnc2)Cc2cc3cc(OC)c(OC)cc3[nH]c2=O)cc1	10
Cc1ccccc1NC(=O)Cc1nc(-c2ccc3ccccc3c2)cs1	17
Oc1ccc(/C=N/N(Cc2ccccc2)c2ccccc2)c(O)c1O	9
Cc1cc(Nc2ccc(C)c(Cl)c2)nc(N2CCOCC2)n1	12
CC(NC(=O)c1ccc(F)cc1)C(=O)NC1=NCCS1 (centres undefined)	5
O=C(O)c1cc2nc(-c3cccs3)cc(C(F)(F)F)n2n1	-1
Nc1nnc(SCC(=O)Nc2cc(S(=O)(=O)N3CCOCC3)ccc2Cl)s1	11
COc1ccc(N2CC(O)(c3ccc(C)cc3)[N+]3=C2CCCC3)cc1 (centres undefined)	15
N#CC1=C(SCC(=O)Nc2ccc(C(=O)O)cc2)NC(=O)CC1c1ccco1 (centres undefined)	13
CCOc1ccc(NC(=O)/C(=C\c2ccc(OC(C)=O)c(OC)c2)NC(C)=O)cc1	14

Overlap with the part before: 2 entries; new compounds follow.
SMILES	Biofilm kill mix
N#CC1=C(SCC(=O)Nc2ccc(C(=O)O)cc2)NC(=O)CC1c1ccco1 (centres undefined)	13
CCOc1ccc(NC(=O)/C(=C\c2ccc(OC(C)=O)c(OC)c2)NC(C)=O)cc1	14
Cc1ccc(NC(=O)c2cnn(C)c2)cc1[N+](=O)[O-]	17
CCc1ccc(C2CC(=O)N(c3ccc(F)cc3)C3=C2C(=O)OC3)cc1 (centres undefined)	9
O=C(Nc1nc2n(n1)C(c1ccc(F)cc1)CC(c1ccccc1)N2)c1ccco1 (centres undefined)	15
COc1ccc(-n2c(=O)c3c4c(sc3n(Cc3cccc(F)c3)c2=O)CN(C(C)=O)CC4)c(OC)c1	13
COc1ccc2[nH]cc(CCNS(=O)(=O)c3ccc(NC(C)=O)cc3)c2c1	29
CCN1CCN(C(=O)/C=C/c2ccccc2[N+](=O)[O-])CC1	8
CCOC(=O)c1c(NC(=O)CN2C(=O)NC3(CCCCC3)C2=O)sc(C)c1-c1ccc(C)cc1	13
Oc1ccccc1C=NC1=NN(c2cccc(C(F)(F)F)c2)CC1	14
O=C(COC(=O)c1ccc(Cl)c(S(=O)(=O)N2CCN(c3ccc(F)cc3)CC2)c1)Nc1cccc(Cl)c1	0
O=C(NCc1ccccc1)C1CCN(S(=O)(=O)c2cc([N+](=O)[O-])ccc2Cl)CC1	30
O=C(COc1ccccc1)Nc1ccc2c(c1)Cc1cc(NC(=O)COc3ccccc3)ccc1-2	12
N#Cc1ccc(NC(=O)Nc2cccc(C#N)c2)cc1	7
Cc1[nH][nH]c(=O)c1C(c1ccc(-c2ccccc2C(=O)O)o1)c1c(C)[nH][nH]c1=O	15
COc1ccc2c(c1)c(=O)c(C(=O)c1ccc(C)cc1)cn2CC(=O)Nc1ccc(F)cc1	10
O=C(O)c1ccc(NC2=Nc3cccc4cccc2c34)cc1	15
O=C(CCSc1ccccc1)Nc1ccccc1C(=O)N1CCCC1	14
O=C(COC(=O)Cn1cnc2ccccc21)Nc1cc2c(cc1Cl)C(=O)c1ccccc1C2=O	18
CCOc1ccc(C(CC(=O)O)NC(=O)COc2ccccc2)cc1OC (centres undefined)	20
CN1C(=O)c2ccccc2NC(=O)[C@]12O[C@@H]2c1cccc(O)c1	17
CCCCN(C(=O)CSc1nnc(-c2ccccc2OC)n1C)c1c(N)n(Cc2ccccc2)c(=O)[nH]c1=O	16

Next part:
SMILES	Biofilm kill mix
O=c1cc(-c2ccc(O)c(O)c2)oc2cc(O)c(C3OC(CO)C(O)C(O)C3O)c(O)c12 (centres undefined)	20
CCOC(=O)C1CCN(C(=O)c2ccccc2NS(=O)(=O)c2ccc(F)c(F)c2)CC1	-4
COC(=O)c1cccc(NC(=S)N2CCCCC2)c1	18
CCN(CC)CCCNC(=O)c1cc(Sc2nnc(C)s2)nc2ccccc12	13
Cc1ccc2nc(C)c(C(=O)N/N=C/c3ccccc3[N+](=O)[O-])cc2c1	14
CCOC(=O)C(C)Oc1ccc(NC(=O)C(Cl)(Cl)Cl)cc1 (centres undefined)	18
CC(C)c1ccc(C2C3=C(COC3=O)Nc3cc4c(cc32)OCO4)cc1 (centres undefined)	12
CCn1cc(C(=O)NCc2ccc3c(c2)OCO3)c(=O)c2cc(S(=O)(=O)N(C)C)ccc21	3
CC(C)(OC1OC(CO)C(O)C(O)C1O)[C@H]1Oc2ccc3ccc(=O)oc3c2[C@H]1O (some centres undefined)	11
O=C(CCc1ccc(S(=O)(=O)N2CCOCC2)cc1)Nc1ccc2c(c1)OCCO2	5
CCOc1ccccc1NC(=O)C(OC(=O)c1cc(C)oc1C)c1ccccc1 (centres undefined)	4
O=C(CSc1ccccn1)N1CCN(c2ncc(C(F)(F)F)cc2Cl)CC1	10
CCOC(=O)c1ccc(NC(=O)CN2C(=O)NC3(CCC(C)CC3)C2=O)cc1 (centres undefined)	1
COCCn1c(SCC(=O)Nc2nnc(C)s2)nnc1-c1ccoc1C	23
COc1cc(/C=N/NC(=O)c2cc(-c3ccco3)nc3ccccc23)cc(OC)c1O	24
COC(=O)[C@@H](NC(=O)/C=C/c1ccc(OC)cc1)C(C)C	6
Cc1ccc(OCCn2cc(/C=C(\C#N)C(=O)NCC3CCCO3)c3ccccc32)cc1 (centres undefined)	15
COc1ccc(Cl)cc1C(=O)Nc1ccc(S(N)(=O)=O)cc1	14
O=C(CC(c1ccco1)S(=O)(=O)c1ccccc1)c1ccccc1 (centres undefined)	10
O=C(c1ccccc1)N1C(=O)C(c2ccccc2)Oc2ccccc21 (centres undefined)	36

Continued:
SMILES	Biofilm kill mix
O=C(NCCCCCCNC(=O)c1cccs1)c1cccs1	22
CCOc1ccc(C(=O)NCCN2CCCC2)cc1	17
Nc1cc(=O)[nH]c(SCC(=O)NNC(=O)Cc2ccccc2)n1	-2
OC1O[C@H](c2ccc3c(c2)OCO3)[C@H]2CO[C@H](c3ccc4c(c3)OCO4)[C@@H]12 (some centres undefined)	21
Cc1ccc(C2c3sc(=O)[nH]c3SC3C4CC(C5C(=O)N(C(C)C(=O)O)C(=O)C45)C23)cc1 (centres undefined)	8
C=C(C)c1cccc(C(C)(C)NC(=O)NCc2cccnc2)c1	10
CCCn1cc(C(=O)OCC)c(=O)c2cc(F)c(F)cc21	16
CC(=O)c1ccccc1NCC(=O)Nc1ccc(C)cc1	19
O=C(COC(=O)c1ccccc1[N+](=O)[O-])Nc1cc(S(=O)(=O)N2CCOCC2)ccc1N1CCCC1	18
Cc1cc(SCC(=O)NN=C2CCN(C(C)C)CC2)c(C)cc1Br	16
CC(=O)N1N=C(c2ccccc2)OC1c1ccc([N+](=O)[O-])s1 (centres undefined)	15
Cn1c(=O)n(Cc2ccc(F)cc2)c(=O)c2c1nc1n2CCN1Cc1ccco1	19
O=C(CS(=O)(=O)c1ccccc1)Nc1cccnc1	6
Cc1ccc(Nc2nc(N)c([N+](=O)[O-])c(N3CCOCC3)n2)cc1C	6
COc1ccc(Br)cc1C(=O)Nc1ccccc1N1CCN(C(=O)c2ccccc2)CC1	11
COc1ccc(NC(=O)/C(Cl)=C(/Cl)S(=O)Cc2ccc(Cl)cc2)cn1 (centres undefined)	8
Cc1ccccc1NC(=O)Cc1cccc(C(F)(F)F)c1	15
COCCCNC(=S)N/N=C/c1ccc2c(c1)OCO2	18
CCCCCCOc1ccc(/C(C)=N/NC2=NCCN2)cc1[N+](=O)[O-]	11
CC(=O)Cn1c(CN2CCCC2)nc2ccccc2c1=O	9

Part of the list above in another layout:
O=C(COC(=O)c1ccccc1[N+](=O)[O-])Nc1cc(S(=O)(=O)N2CCOCC2)ccc1N1CCCC1
- Biofilm kill mix = 18
Cc1cc(SCC(=O)NN=C2CCN(C(C)C)CC2)c(C)cc1Br
- Biofilm kill mix = 16
CC(=O)N1N=C(c2ccccc2)OC1c1ccc([N+](=O)[O-])s1 (centres undefined)
- Biofilm kill mix = 15
Cn1c(=O)n(Cc2ccc(F)cc2)c(=O)c2c1nc1n2CCN1Cc1ccco1
- Biofilm kill mix = 19

Remaining list, next part
SMILES	Biofilm kill mix
O=C(Nc1nc(-c2ccccc2)ns1)c1ccncc1	-1
N#Cc1c(NC(=O)c2cnn3cccnc23)sc2c1CCCC2	4
O=[N+]([O-])c1ccc(Sc2cccc3cccnc23)c2cccnc12	8
O=C(COC(=O)Cc1ccsc1)NCc1ccc(Cl)cc1	9
CCOC(=O)N1CCN(C(=O)c2cc(COc3ccc4ncccc4c3)on2)CC1	4
Cc1[nH]c(=S)c(C#N)c(-c2ccccc2)c1C(=O)Nc1ccccc1	12
Cc1ccccc1OCc1n(CC(=O)OC2CC(C)CCC2C(C)C)c2ccccc2[n+]1C (centres undefined)	34*!
COc1ccc(C2CC(c3cccs3)=NN2C(=O)CSc2nc3ccccc3o2)cc1 (centres undefined)	17
O=C(O)C(Cc1c[nH]c2ccccc12)N1Cc2ccccc2C1=O (centres undefined)	1
Cc1ccc(NC(=O)Nc2c(C)n(C)n(-c3ccccc3)c2=O)cc1C	10
Cc1nn(Cc2ccc(C(=O)N3N=C(C(F)F)CC3(O)C(F)F)o2)c(C)c1[N+](=O)[O-] (centres undefined)	15
Cc1cc(S(=O)(=O)NCc2cccs2)ccc1-n1cnnn1	18
CN(CCCNC(=O)Cn1cccc1C(=O)c1ccccc1)C1CCCCC1	14
Cc1occc1C(=O)N=Nc1c(O)n(C)c2ccccc12	-1
COC(=O)c1ccc2c(=O)[nH]c(CSc3nc(-c4ccc(F)cc4)cs3)nc2c1	16
COc1cccc(/C=C/C(=O)NCCc2ccc3c(c2)OCCO3)c1	11
CCNC(=S)N/N=C/c1cn(Cc2ccc(F)cc2)c2ccccc12	15
CC(=O)c1cccc(NC(=O)C2CCN(C(=O)c3ccc([N+](=O)[O-])cc3)CC2)c1	6
COc1ccc(C(c2c(N)[nH]c(=S)[nH]c2=O)c2c(N)[nH]c(=S)[nH]c2=O)cc1	16
CCOC(=O)CSc1nnc(-c2cc(OC)c(OC)c(OC)c2)o1	12

(continued)
SMILES	Biofilm kill mix
CN1CCN(C(=S)NC(=O)/C=C/c2ccccc2Cl)CC1	22
Cc1cc(Cl)ccc1NC(=O)CCC(=O)N/N=C/c1cc([N+](=O)[O-])ccc1O	15
COc1ccccc1C1=NOC(Cn2c(NCCOCCO)nc3c2c(=O)n(C)c(=O)n3C)C1 (centres undefined)	24
COc1ccccc1-c1cc(N)n(S(=O)(=O)c2cccc3nsnc23)n1	18
CCCCCCCCC(=O)NCCOc1ccccc1	21
CC1CCc2sc(C(=O)N/N=C/C3CCCCC3)cc2C1 (centres undefined)	17
CC(=O)N/N=C(\C)c1ccc(Br)cc1Br	8
CCOC(=O)C(=O)NC12CC3CC(CC(C3)C1)C2	6
C=CCn1c(SCC(=O)N2CCc3ccccc3C2)nc2sc(C)c(C)c2c1=O	10
Cc1cc(=O)n(Cc2ccc(OC(C)C)cc2)c(=S)[nH]1	13
COc1ccc(C2C3=C(CC(C)(C)CC3=O)Nc3c2c(=O)n(C)c(=O)n3C)cc1OC (centres undefined)	2
CC(C)(C)C1=C(C#N)C(c2cccnc2)C(C#N)=C(N)O1 (centres undefined)	12
O=C(NCC(=O)N(Cc1cccs1)C(C(=O)NC1CCCCC1)c1ccncc1)c1ccco1 (centres undefined)	9
Fc1ccccc1Cc1noc(CN2CCN(c3ccc(Cl)cn3)CC2)n1	-9
Cc1oc(-c2cccc(Cl)c2)nc1CN1CCC(C(=O)N2CCN(c3ccccc3F)CC2)CC1	18
COc1ccc(Nc2nc(=O)c3cc([N+](=O)[O-])ccc3s2)cc1	21
COc1ccc(C(=O)C(C)[n+]2ccc(-c3nnc4n3CCCCC4)cc2)cc1 (centres undefined)	14
Cc1ccc(C(=O)n2nc(C#N)c(C#N)c2N)cc1	-3
NS(=O)(=O)c1ccc(CCNC(=O)CSc2nc3ccsc3c(=O)n2CC(=O)O)cc1	13
COC(=O)C(CC(=O)c1cccc(OC)c1)c1ccc(F)cc1 (centres undefined)	10
O=C(NCCCN=C1NS(=O)(=O)c2ccccc21)c1ccco1	13
CCOC(=O)C1(CCOc2ccccc2)CCN(Cc2ccc(CO)o2)CC1	4
NC(=O)N/N=C/c1c(O)ccc2oc3c(c12)CCCC3	5
